Ecoli growth = E. coli growth inhibition, primary screen, OD600. OD600 absorbance (test concentration not listed). Escherichia coli growth, 23 h; hits give low values. 0.21% of 330,000 active;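 active = OD600 absorbance below the run mean of sample wells minus 3.6 SD, in any replicate, cut at about 0.56 in these data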;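 also: stock transfer was 300 nL into about 60 µL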
AF4-AF9 inh = inhibitors of AF4 peptide binding to AF9, primary screen, biochemical, AlphaScreen, biotin-AF4 peptide, FLAG-AF9, single point | 0.47% of 350,000 active | Protein AF-9 (Homo sapiens), P42568 | inhibition, % at 10 µM;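 active = every replicate reaching a set inhibition limit, whatever the replicate mean, cut at about 25% in these data; inconclusive = mean inhibition reaches that limit but some replicates miss it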;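 also: 0% = plate neutral control median and 100% = total signal loss; the record names both 10 and 1 µM as test concentration; the first replicate is given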
Target sequence (P42568 whole entry, looked up): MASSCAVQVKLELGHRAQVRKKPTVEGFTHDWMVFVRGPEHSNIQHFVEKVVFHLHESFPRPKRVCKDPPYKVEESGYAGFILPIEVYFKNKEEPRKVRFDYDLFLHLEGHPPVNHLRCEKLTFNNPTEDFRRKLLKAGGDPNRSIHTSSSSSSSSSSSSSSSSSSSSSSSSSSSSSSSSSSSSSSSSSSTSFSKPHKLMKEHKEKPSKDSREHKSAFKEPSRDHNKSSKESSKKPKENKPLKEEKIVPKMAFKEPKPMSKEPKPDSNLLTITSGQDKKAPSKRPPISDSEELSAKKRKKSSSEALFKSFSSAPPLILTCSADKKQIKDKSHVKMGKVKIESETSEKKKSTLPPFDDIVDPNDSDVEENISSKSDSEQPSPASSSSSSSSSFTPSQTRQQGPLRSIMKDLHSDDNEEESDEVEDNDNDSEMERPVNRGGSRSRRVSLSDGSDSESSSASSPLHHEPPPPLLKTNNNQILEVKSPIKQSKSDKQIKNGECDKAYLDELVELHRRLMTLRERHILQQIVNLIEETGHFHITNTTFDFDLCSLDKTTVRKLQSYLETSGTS
Vif A3G = inhibitors of Vif binding to APOBEC3G peptide, primary screen, biochemical, TR-FRET, GST-Vif 1-94, biotin-A3G peptide, dose response retest (AID 1117319); 0.57% of 260,000 active; Virion infectivity factor (Human immunodeficiency virus type 1 group M subtype B (isolate …; TR-FRET GST-Vif / biotin-A3G peptide binding; higher % means a stronger effect; test concentration not given here; strong numbers were not always called active; inhibition, %; hits with a dose series show IC50 in µM;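 active = above the screen mean plus three standard deviations and confirmed in dose response; inconclusive = results disagree or hit not tested in dose response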;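 also: Vif residues 1-94 fused to GST binding biotinylated APOBEC3G peptide 110-148; 0% = full assay without inhibitor and 100% = GST in place of GST-Vif; retest series ran down from 100 µM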
HNF4A DNA FP = change in binding of human HNF4A to DNA, primary screen, biochemical, fluorescence polarization, FITC-DNA | Hepatocyte nuclear factor 4-alpha (Homo sapiens), P41235 | activity change, % at 10 µM | 0.3% of 360,000 active | 1 h; in the data active = activity change above about 30%, passing the limit was not always enough;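 also: controls were the assay level and a saturating level of protein; the project sought stronger binding though the title names inhibitors; some compounds called inactive have numbers as strong as hits; positive values seem to mean higher polarization but the record does not say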
Target sequence (P41235 whole entry, looked up): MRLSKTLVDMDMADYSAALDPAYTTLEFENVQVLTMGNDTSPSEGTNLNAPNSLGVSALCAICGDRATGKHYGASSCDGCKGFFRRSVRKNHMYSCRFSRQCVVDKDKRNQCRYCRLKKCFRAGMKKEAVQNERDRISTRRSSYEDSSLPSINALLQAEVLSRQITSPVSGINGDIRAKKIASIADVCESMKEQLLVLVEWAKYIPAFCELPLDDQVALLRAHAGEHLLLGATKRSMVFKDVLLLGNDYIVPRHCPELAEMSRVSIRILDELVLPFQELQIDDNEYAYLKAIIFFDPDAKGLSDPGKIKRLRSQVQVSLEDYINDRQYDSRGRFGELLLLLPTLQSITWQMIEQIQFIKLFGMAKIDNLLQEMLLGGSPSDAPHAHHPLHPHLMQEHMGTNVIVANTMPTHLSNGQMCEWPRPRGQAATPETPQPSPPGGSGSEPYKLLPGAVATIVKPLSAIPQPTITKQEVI
FGF22 binding = binders of human FGF22 protein, primary screen, FGF22 synaptogenesis inhibitor project, biophysical, thermal shift, single point | recombinant FGF22 thermal shift, SYPRO orange fluorescence; percent of sucrose octasulfate shift, DMSO zero | AID 651658, 2012 | calls only at 9.99 µM | 1.5% of 340,000 active;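 active = melting point raised past a set limit in the mean and every replicate; inconclusive = no clear call; three in four hits are not shown here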
RanGTP-Impb inh = inhibitors of RanGTP-importin-beta interaction, primary screen, biochemical, FRET, CFP-Ran, YFP-importin-beta, homogeneous; cell-free CFP-Ran/YFP-importin-beta FRET ratio; Ran GTPase (GTP-bound) - importin-beta complex; 1.1% of 300,000 active; inhibition, % (concentration not given with the values);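 active = most replicates above 15%; inconclusive = exactly half above 15%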;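 also: 0% = DMSO wells and 100% = Ran loaded with GDP instead of GTP; wells of about 40 µL received 100 nL stock; the first replicate is given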
UCH37 DUB inh = inhibitors of human UCH37 deubiquitinase, primary screen, biochemical, Ub-AMC cleavage, fluorescence; 0.33% of 330,000 active; Ubiquitin carboxyl-terminal hydrolase isozyme L5 (Homo sapiens), Q9Y5K5; purified proteasome/UCH37; inhibition, % (test concentration not listed); AID 588478, 2011;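 active = mean of two replicates above 20%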;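 also: 0% = compound-free wells with enzyme and 100% = wells lacking proteasome; stock transfer was 100 nL into about 20 µL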
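assay system = human UCH37 enzyme supplied as purified proteasome complex | amount = proteasome at 0.15 nM in the dispensed enzyme solution | schedule = 30 min compound-proteasome preincubation then 25 min substrate reaction, room temperature | measured by = fluorescence, ex 355 nm, em 460 nm | benchmarks = no-proteasome wells (full inhibition) and compound-free wells (no inhibition)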
* marks the source's active call; other numbers are inactive results; i = inactive; ? = inconclusive; . = no result given; + = active, no number; & = joins results of further samples. Not all compounds are listed (hit frequency here may not be typical).

SMILES	Ecoli growth	AF4-AF9 inh	Vif A3G	HNF4A DNA FP	FGF22 binding	RanGTP-Impb inh	UCH37 DUB inh
COc1ccc(OCC(=O)N2CCc3ccccc32)c([N+](=O)[O-])c1	.	-6.1	.	-1.9	i	.	.
Cn1c(SCc2nc3ccccc3[nH]2)nnc1-c1cccs1	0.65	0.9	1%	3.2	i	0.2	-4.0
COC(=O)c1ccc(NC(=O)C[n+]2ccccc2C)cc1	0.68	-2.9	-4%	3.6	i	-1.5	-0.3
Cc1cc(NC(=O)C(C)SCC(=O)OC(C)C(=O)Nc2ccc(F)cc2Cl)no1 (stereo unspecified)	0.7	-2.0	0%	-2.6	i	3.2	1.2
CCOC(=O)N1CCN(C(=O)COc2ccc(Br)cc2)CC1	0.74	.	0%	1.0	.	-0.9	-1.0
Cc1ccc(S(=O)(=O)N2C[C@@]3(O)Cn4c(=O)ccc(=O)n4C[C@@]3(OC(=O)NCC3CCCCC3)C2)cc1	.	-4.9	.	5.9	i	.	.
Cc1ccc2nc(NCCC(=O)O)nc(-c3ccccc3)c2c1	0.66	-2.3	-3%	-1.5	i	3.3	i
Cc1cc(C(=O)NCc2ccco2)no1	0.66	.	21%	-0.8	.	8.5	0.5
Cc1nccn1CC(=O)c1ccc(O)c(O)c1	0.79	-1.5	.	-2.3	i	.	2.3
CC(NC(=O)CN(C)CC(=O)Nc1ccccc1Br)c1ccccc1 (stereo unspecified)	0.66	-0.5	4%	-1.0	i	.	1.2
O=C(C[n+]1ccccc1)N/N=C/c1ccc(C(=O)O)cc1	.	3.2	.	3.0	i	.	.
COc1cc(S(=O)(=O)NCc2ccccc2Cl)ccc1-n1cnnn1	0.66	-0.4	.	0.9	i	?	1.4
O=C(NCc1ccc2c(c1)OCO2)c1ccc(N2CCCCCC2)c([N+](=O)[O-])c1	0.7	.	.	-0.4	.	4.5	3.7
CC1C(C(=O)Nc2ccccc2)CCCC1(C)C(=O)O (stereo unspecified)	0.62	.	?	1.4	.	-2.9	0.5
Cc1cccc(C)c1OCC(=O)Nc1cccc(S(=O)(=O)N2CCCCCC2)c1	.	-0.9	-5%	-1.1	i	.	.
COc1cccc(CNC(=O)Cn2nc(-c3ccc(Cl)cc3)ccc2=O)c1	0.72	.	8%	-2.4	.	.	0.3
COc1ccc(Cl)cc1Nc1nc(C)nc2c1oc1ccccc12	0.7	-0.5	.	0.6	i	6.1	-187
Cc1ccc(S(=O)(=O)NCCc2nnc(SCc3cccnc3)n2C)cc1	0.64	-0.3	.	-2.0	i	0.2	2.0
CCOC(=O)NNC(=O)c1ccc(Cl)cc1	0.79	.	1%	-2.0	.	0.6	2.2
O=C(NCCCN1CCOCC1)c1c(-c2ccccc2)sc2ccccc12	0.69	-0.3	1%	-0.1	i	.	2.2
O=C(CSc1nnnn1-c1ccccc1)N1CCNC1=O	0.65	-15	.	1.8	i	-2.9	1.4
COc1ccc(/C(O)=C2/C(=O)C(=O)N(CCN3CCOCC3)C2c2ccccn2)cc1 (stereo unspecified)	0.72	.	12%	1.0	.	.	11
CC(C)(CC(=O)N1CCN(c2ccc(Cl)cc2)CC1)CC1=NS(=O)(=O)c2ccccc2N1	0.72	.	-10%	-0.5	.	2.1	1.3
Cc1oc(-c2ccc3c(c2)OCCO3)cc1C(=O)O	0.65	.	29%	1.0	.	-10	1.3
COC(=O)c1ccc(N2C(c3cc(OC)cc(OC)c3)=Cc3ccc(OC)cc3C2CC(=O)c2ccco2)cc1 (stereo unspecified)	.	1.7	.	2.3	i	.	.

Next structures follow.
SMILES	Ecoli growth	AF4-AF9 inh	Vif A3G	HNF4A DNA FP	FGF22 binding	RanGTP-Impb inh	UCH37 DUB inh
O=C(CCC(=O)c1cccs1)NC1CCCCCC1	0.7	0.9	-3%	-8.2	.	12	4.1
CCC(=O)Nc1c(C)n[nH]c1C	0.69	.	-1%	-3.1	.	-0.6	1.5
O=C(O)c1cnc(-c2ccccc2)nc1Sc1ccc(Cl)cc1Cl	0.65	.	-5%	-0.4	.	-0.5	7.2
CCOc1ccc(-n2c(=O)c3c4c(sc3n(CC(=O)NCCCOC)c2=O)CCCCC4)cc1	0.69	.	-5%	4.2	i	1.6	4.9
CC1(C(=O)NS(=O)(=O)c2ccccc2Cl)CCN1C(=O)Cc1cccs1 (stereo unspecified)	.	-4.2	.	-2.2	i	.	.
Cc1ccc(S(=O)(=O)N2CCN(c3ccccc3)CC2)c(C)c1	0.64	-2.8	.	-2.3	i	2.8	0.6
Cc1ccc2nc(-c3cccc(Br)c3)c(Cc3ccccn3)n2c1	.	2.7	.	-6.4	i	.	.
CCOc1ccccc1Nc1cc(C)nc2ccccc12	.	1.8	-1%	0.4	i	.	.
CCN(C(=O)CSc1nnc(Cn2nnc3ccccc32)o1)c1nc(-c2ccccc2)cs1	0.83	.	-8%&0%	-0.7	.	?	5.3
Cc1ccc(S(=O)(=O)N(C)CC(=O)N2CCN(Cc3ccccc3)CC2)cc1	0.67	-1.8	.	-1.7	i	4.8	2.2
O=C(OCC(=O)c1ccccc1Br)c1ccccn1	0.73	.	-3%	6.3	.	1.0	3.9
Cc1cc(OCC(=O)N[C@@H](Cc2c[nH]c3ccccc23)C(=O)O)c2c(C)c(C)c(=O)oc2c1	0.72	-0.8	.	0.3	i	5.3	1.2
Cc1cccc2cc(CN(Cc3ccc(F)cc3)C(=O)N(C)C)c3nnnn3c12	0.63	.	-8%	12	.	0.7	2.5
Cc1ccc(C(=O)N(CC(=O)NC2CCCC2)c2ccccc2Cl)s1	0.66	-0.3	.	1.1	i	-2.4	5.1
CC1CN(C(=O)c2cc(S(=O)(=O)N(C)c3ccc(F)cc3)ccc2Cl)CC(C)O1 (stereo unspecified)	0.72	-1.8	-4%	-0.8	i	5.2	7.0
COc1cc2cc(NC(C)=O)cc(NCc3ccccc3)c2cc1OC	0.71	12	.	-0.4	+	0.6	-36
COc1ccc(-c2noc(N3CCC(C(=O)Nc4ccc(OC)c(OC)c4)CC3)n2)cc1	0.67	1.3	.	-0.1	i	0.3	6.0
NS(=O)(=O)c1ccc(CCNCc2cc(Br)ccc2OCc2ccccc2)cc1	0.66	.	21%	-0.9	.	1.9	3.2
O=C(C1COc2ccccc2O1)N1CCc2ccccc21 (stereo unspecified)	0.7	.	14%	-5.5	.	-3.4	-1.8
O=C(NC(=S)NCc1cccnc1)c1ccccc1[N+](=O)[O-]	0.67	2.1	4%	-0.3	i	-5.1	1.5
Cc1[nH][nH]c(=O)c1C(c1ccc(O)c(Br)c1)c1c(C)[nH][nH]c1=O	0.63	2.5	-10%	0.8	i	6.2	2.9
CC(C)C1N(S(=O)(=O)c2ccccc2)CCN1S(=O)(=O)c1ccccc1	0.72	.	6%	3.9	.	1.4	0.9
Cc1cc(Br)ccc1NC(=O)CNC(=O)CSc1nccn1C	0.69	-3.0	.	0.5	i	.	-2.9
O=C(Oc1ccc(/C=N/NC(=O)c2ccccc2F)cc1)c1ccccc1	.	-0.5	-3%	4.0	i	0.0	.
C[C@H]1CN([C@@H](C)CO)C(=O)Cc2cc(NS(C)(=O)=O)ccc2O[C@@H]1CN(C)Cc1ccc(Cl)c(Cl)c1	.	-0.8&1.9	.	-4.3	i	.	0.5

The listing continues:
SMILES	Ecoli growth	AF4-AF9 inh	Vif A3G	HNF4A DNA FP	FGF22 binding	RanGTP-Impb inh	UCH37 DUB inh
Cc1cc(F)ccc1NS(=O)(=O)c1cccc2nsnc12	0.66	-0.1	-2%	2.7	i	?	-0.7
O=C(Nc1ccccc1-c1ccccc1)c1ccc(=O)[nH]n1	0.64	0.2	17%	3.2	i	0.1	5.3
CN(C)CCN(C)Cc1ccccc1Sc1cccc2ccccc12	0.59	36*	-15%	1.0	i	0.4	7.2
Cc1cccc(N2CCN(C(=O)CCCn3c(=O)[nH]c4ccsc4c3=O)CC2C)c1 (stereo unspecified)	0.67	2.1	6%	4.6	i	?	-0.5
Cc1ccccc1CN1C2=NCCCN2c2ccccc21	0.7	.	7%	-0.9	.	-6.6	2.3
CC1CCCC(NC(=O)COC(=O)Cc2ccc(Br)cc2)C1C (stereo unspecified)	0.71	-0.2	9%	0.1	i	3.3	3.0
O=C(Nc1ccc(Cl)cc1C(=O)N1CCOCC1)c1ccco1	0.68	4.9	1%	-0.1	i	4.0	5.3
C[C@H]1COC(=O)[C@H](CC(=O)OC(C)(C)C)C/C=C\C[C@@H](CC(=O)N[C@H](CO)Cc2ccccc2)C(=O)N1	.	2.1	.	5.9	i	.	0.6
COc1ccccc1-c1nnc(SCC(=O)Nc2nc(-c3ccccc3)cs2)n1C	0.68	.	32%	0.9	.	-2.8	1.4
COc1ccc(NC(=O)NC(C)c2ccncc2)cc1OC (stereo unspecified)	0.66	.	0%	-1.8	.	1.7	2.4
Cc1ccc(S(=O)(=O)N2CCN(C3CC4CCC3C4)CC2)cc1 (stereo unspecified)	0.73	-1.6	.	0.1	i	-0.7	0.2
OCc1cccc(-c2csc(C(O)(c3ccccc3)C(F)(F)F)n2)c1 (stereo unspecified)	.	0.1	.	3.3	i	.	.
COc1ccccc1NS(=O)(=O)c1cccc(C(=O)NCC(c2ccco2)N2CCCCC2)c1 (stereo unspecified)	0.63	-5.6	-3%	4.1	i	4.2	1.1
CCOC(=O)c1ccc(NC(=O)CCc2nnc3ccc(N4CCN(C)CC4)nn23)cc1	0.68	-15	-11%	0.9	i	3.1	1.2
CCOC(=O)C1(CCCc2ccccc2)CCN(C(=O)c2cncs2)CC1	0.66	2.7	-7%	-5.1	i	1.7	2.4
CSc1nnnn1-c1ccc(C(=O)OCC(=O)N2CCOCC2)cc1	0.66	.	-1%	1.1	.	3.2	0.1
Cc1cccc(NC(=O)CN(C)S(=O)(=O)c2ccccc2)n1	0.73	.	0%	-2.1	.	0.0	-1.2
CCOC(=O)C1=CCN(S(=O)(=O)c2ccc(F)cc2)C1c1ccc(Br)cc1 (stereo unspecified)	.	-0.7	.	3.6	i	.	.
COc1cccc(CN(C)C(=O)CC[C@H]2O[C@@H](n3cnc4c(NC(=O)c5ccccc5)ncnc43)[C@H](O)[C@@H]2O)c1	.	-1.1	.	-1.0	i	.	.
CCOc1ccc(-n2ccnc2SCC(=O)Nc2nnc(CC)s2)cc1	0.69	.	4%	-3.0	.	0.8	2.1
COc1cc(/C=N/NC(=O)NC2CCCCC2)cc(OC)c1O	.	-1.2	1%	0.8	i	-1.2	.
CC(=O)c1c(C(C)=O)c(C)n(-c2nc(-c3ccc(C)c(C)c3)c(C)s2)c1C	0.7	.	-19%	-0.8	.	-2.0	1.7
